Arbovirus inh = antivirals against arbovirus infection, primary screen, cell-based, full library, 10K replicate subset. AID 1251, 2008. hit rate 0.37% among 200,000. inhibition, % at 10 µM. arbovirus infection cell-based antiviral screen;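 active = inhibition from about 30%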;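 also: bluetongue infection of BSR cells; cell survival read as ATP light after 72 h; 0% = infected wells without compound and 100% = uninfected wells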
YopH inh = YopH tyrosine phosphatase inhibitors, primary screen, biochemical, fluorescence Ex485/Em525. YopH tyrosine phosphatase [Yersinia enterocolitica]. inhibition, %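 (about 10 µM by stock and volumes)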. hit rate 0.16% among 140,000. AID 898, 2007;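 active = inhibition of 50% or more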;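 also: controls were vehicle for no effect and minimum signal wells for full effect; inactives centre near -20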
Mtb bLac sens = beta-lactam sensitization of Mtb H37Rv, H37Rv | M. tuberculosis H37Rv growth with meropenem, percent inhibition; hits of this screen are not shown here | inhibition, % at 25 µM | hit rate 0.27% among 330,000 | AID 434955, 2010;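 active = about 74% or more and at least 40 points above the plate without the antibiotic, then above 30% in a dose series; inconclusive = first-round hits that could not be retested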;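 also: growth measured after seven days incubation then overnight dye step; 0% = bacteria only wells and 100% = bacteria with antibiotic; twin plates without the antibiotic show which effects depend on it; some results filed as inactive read as strong as hits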
Mtb growth = M. tuberculosis H37Rv growth inhibitors, H37Rv strain (AID 1626) | one-dose inhibition, % at 10 µM; IC50 in µM for titrated hits | hit rate 0.95% among 220,000 | M. tuberculosis H37Rv growth inhibition; higher % means a stronger effect;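 active = confirmed in a dose series; inconclusive = inhibition above 80% but not taken into the dose series; inactive = below 80% or under 30% at every dose of the series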;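 also: bacteria incubated seven days before Alamar blue readout; 0% = bacteria only wells and 100% = bacteria with antibiotic wells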
RecA intein inh = Mtb RecA intein splicing inhibitors, primary screen, biochemical, fluorescence, HTS | cell-free RecA intein splicing | Protein RecA (Mycobacterium tuberculosis (strain ATCC 25618 / H37Rv)), P9WHJ3 | hit rate 0.75% among 290,000 | inhibition, %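 (about 9 µM by stock and volumes)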; in the data active = inhibition above about 30%; inconclusive = no clear call, values can overlap the other calls;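 also: 0% = vehicle wells and 100% = reference inhibitor control wells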
Target sequence (P9WHJ3 whole entry, looked up): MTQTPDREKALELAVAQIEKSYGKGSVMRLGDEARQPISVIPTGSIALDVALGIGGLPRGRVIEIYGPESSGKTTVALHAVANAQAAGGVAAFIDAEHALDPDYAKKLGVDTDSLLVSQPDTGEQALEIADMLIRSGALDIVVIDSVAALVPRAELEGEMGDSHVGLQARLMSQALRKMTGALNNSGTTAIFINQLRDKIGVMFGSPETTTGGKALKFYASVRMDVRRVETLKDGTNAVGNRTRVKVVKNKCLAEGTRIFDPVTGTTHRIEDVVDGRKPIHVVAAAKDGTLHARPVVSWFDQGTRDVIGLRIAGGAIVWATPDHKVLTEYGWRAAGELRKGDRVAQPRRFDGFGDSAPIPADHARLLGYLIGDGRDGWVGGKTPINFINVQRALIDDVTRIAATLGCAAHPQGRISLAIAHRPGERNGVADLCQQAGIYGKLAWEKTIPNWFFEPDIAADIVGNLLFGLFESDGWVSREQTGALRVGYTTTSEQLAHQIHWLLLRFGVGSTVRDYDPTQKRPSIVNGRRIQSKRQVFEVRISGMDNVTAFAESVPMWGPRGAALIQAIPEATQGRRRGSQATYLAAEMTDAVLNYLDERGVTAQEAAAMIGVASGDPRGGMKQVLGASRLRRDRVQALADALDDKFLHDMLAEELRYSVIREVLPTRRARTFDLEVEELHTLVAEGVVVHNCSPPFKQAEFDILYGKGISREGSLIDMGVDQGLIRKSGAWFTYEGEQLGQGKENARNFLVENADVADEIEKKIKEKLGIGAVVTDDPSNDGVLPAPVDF
Arbovirus inh repeat = second read-out of Arbovirus inh, no call of its own (marks repeat the call); inhibition, %; measured here: 10K subset replicate screen; many hits read low in the repeat;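 first of two repeat runs on a subset; 0% = infected and 100% = uninfected wells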
Numbers without * were called inactive; u = inconclusive; x = not tested or not shown.

SMILES	Arbovirus inh	YopH inh	Mtb bLac sens	Mtb growth	RecA intein inh	others
Cc1c(NC(=O)c2ccc(N3CCCC3)c([N+](=O)[O-])c2)cccc1-c1nc2ccccc2s1	-9	-41	95	62%	0.3
COc1ccccc1/C=N/N=C(/N)N[N+](=O)[O-]	8	-15	5	5%	-0.7
Cc1ccccc1NC(=S)N(CCCN1CCC(C)CC1)Cc1ccco1	-4	-11	6	0%	0.5
CCCCn1c(SCc2ccccn2)nc2c1c(=O)n(C)c(=O)n2C	6	3	11	-5%	0.5
N/C(=N\OC(=O)COc1ccccc1)c1ccccn1	-3	-10	6	9%	-0.2
Cn1c(=O)c2c(n(Cc3ccccc3)c1=O)NC(=O)C2CC(=O)N1CCc2ccccc2C1 (stereo unspecified)	10	-20	x	3%	x
CCOC(=O)NCc1ccc2c(c1)OCO2	-4	-4	20	7%	3.0
COc1ccc(-c2[nH]nc3oc(=O)cc(C)c23)cc1	10	-7	-1	-7%	1.0
Cc1ccsc1/C=C(\C#N)C(=O)Nc1c(C)n(C)n(-c2ccccc2)c1=O	-8	-29	-1	2%	2.1
COc1ccc(C(=O)N2c3ccc(F)cc3CCC2C)cc1OC (stereo unspecified)	-2	-3	-5	5%	0.1
S=C(NCCCN1CCOCC1)N1CCN(c2nc(-c3ccc(Cl)cc3)cs2)CC1	-30	x	90	10%	x
FC(F)(F)c1nnc(-c2ccccc2)nc1Oc1ccccc1	7	-14	6	-1%	5.2
COc1ccc(O)c(CN2CCCC(C(=O)Nc3cccc(-n4cccn4)c3)C2)c1 (stereo unspecified)	x	x	-4	x	-4.1
O=C(NNS(=O)(=O)c1ccc(Cl)cc1)C1CCN(Cc2ccccc2)CC1	-5	-37	4	-7%	-9.2
O=C(Oc1cccc(NC(=O)c2ccco2)c1)c1cccc(S(=O)(=O)N2CCCC2)c1	-2	-31	-1	1%	11
Clc1ccc(CNc2cnccn2)cc1	-27	x	-4	1%	2.9
CCc1ccc(NC(=O)Cc2cn(C)c3ccccc23)cc1	-7	-28	-1	-3%	-3.1
O=C(NCc1ccccn1)NC1CCCCC1	4	-5	-1	0%	0.1
Cc1cc2c(c(=O)n1CCN(C)C)C(c1ccc(Cl)cc1)C(C#N)=C(N)O2 (stereo unspecified)	-7	21	-7	-3%	0.0
O=C(Nc1ccccn1)c1cc2ccccc2o1	-14	-30	17	9%	-1.9
COC(=O)CCC(=O)OC1(C)C(=O)C=C2C=C(C3CC3)N(c3cccc(C#N)c3)C=C2C1=O (stereo unspecified)	x	x	2	-12%	-13
COc1ccc(NC(=O)NCCN2CCN(c3cccc(Cl)c3)CC2)cc1	-2	-22	4	3%	0.8	Arbovirus inh repeat=-2
Cc1cc(NCc2ccc(F)cc2)nc2cc(Cl)ccc12	x	x	85	x	8.2
COc1ccc2c(c1)c(C(O)CN1CCC(Cc3ccccc3)CC1)c(C)n2C (stereo unspecified)	-16	-16	20	x	1.5
O=C(Nc1ccc(S(=O)(=O)Nc2ncccn2)cc1)c1cccc(S(=O)(=O)N2CCCC2)c1	x	x	0	-3%	0.6
CCOC(=O)c1cccc(NC(=O)CSc2nnc(C3CCCCC3)n2CC)c1	-3	-53	-4	-3%	x
O=C(Nc1ccccc1OC(F)F)c1ccccc1	-7	-27	-4	-1%	-1.6
COCCN(C(=O)CC(C)(C)C)c1nnc(-c2cccnc2)s1	-4	4	3	-8%	-2.7
O=C(O)CSCc1ccc(Cl)cc1	-2	-20	-2	-1%	-0.5
CC(C)c1onc(C(=O)N2CCOCC2)c1[N+](=O)[O-]	7	x	-1	-1%	-4.6
C#CCNC(=O)C1=C[C@@H](c2ccc(Br)cc2)[C@H](CCCO)[C@@H](OCC)O1	0	x	-16	-9%	0.3
COC(=O)c1ccc(C2SCC(=O)N2Cc2ccccc2)cc1 (stereo unspecified)	x	x	22	x	2.9
CN1C(=O)C2(C(C#N)=C(N)N(c3ccc(Cl)cc3)C3=C2C(=O)CC(C)(C)C3)c2ccccc21 (stereo unspecified)	7	3	-3	1%	1.2
CCCc1nn(CCc2ccccn2)c(N)c1CC	1	-28	-25	-7%	1.5
O=C(/C=C/Sc1ccc(C(F)(F)F)cn1)c1ccccc1	x	x	95	52%	3.8
CC(=O)c1cccc(NS(=O)(=O)c2c(C)n[nH]c2C)c1	-4	-7	5	-1%	-0.2
CCOc1ccc(/C=N/n2c(C)nnc2C)cc1OC	-4	x	5	3%	6.1
CC1(C)CC(=O)C2=C(C1)N(c1ccccc1)C(N)=C(C#N)C2c1ccccc1 (stereo unspecified)	3	-34	-1	-4%	1.7
O=C(CSc1cccc[n+]1[O-])Nc1cc2c(cc1Cl)C(=O)c1ccccc1C2=O	-15	-7	90	12%	9.9
OCCNc1nc(Nc2ccc(Cl)c(Cl)c2)nc2ccccc12	x	x	57	x	8.6
Cc1ccc(S(=O)(=O)N2CCN(C3CC(=O)N(CCc4ccccc4)C3=O)CC2)cc1C (stereo unspecified)	13	-28	-10	2%	-0.9
Cc1[nH]n(-c2ccccc2)c(=O)c1C(=O)c1ccccc1	x	x	47	0%	3.2
COc1cccc(COc2ncnc3sccc23)c1	-1	x	-3	1%	0.4
Cc1cc([N+](=O)[O-])c2c(c1C)C1C=CCC1C(c1ccccn1)N2 (stereo unspecified)	13	x	-1	9%	6.5
O=C(CSc1nnc(CNC(=O)c2c(F)cccc2F)o1)c1ccccc1	x	x	-10	x	1.3
CN(C)[C@@H]1C(=O)C(C(=O)NCN2CCCC2)=C(O)[C@@]2(O)C(=O)C3=C(O)c4c(O)cccc4[C@@](C)(O)C3CC12 (stereo partly specified)	2	29	x	-8%	3.9
O=C(c1cccc(C(F)(F)F)c1)N1CCC(=O)N(C(CO)Cc2ccccc2)CC1 (stereo unspecified)	x	x	0	2%	-1.0
CCn1c(/C=C/c2cc[n+](C)cc2)nc2ccccc21	x	x	-1	x	-10

Reprinted at random: two compounds from above.
SMILES	Arbovirus inh	YopH inh	Mtb bLac sens	Mtb growth	RecA intein inh	others
COC(=O)CCC(=O)OC1(C)C(=O)C=C2C=C(C3CC3)N(c3cccc(C#N)c3)C=C2C1=O (stereo unspecified)	x	x	2	-12%	-13
CC1(C)CC(=O)C2=C(C1)N(c1ccccc1)C(N)=C(C#N)C2c1ccccc1 (stereo unspecified)	3	-34	-1	-4%	1.7

Further compounds follow:
SMILES	Arbovirus inh	YopH inh	Mtb bLac sens	Mtb growth	RecA intein inh	others
Cc1cccc(CSc2ccc(-c3ccco3)nn2)c1	-6	-38	1	9%	2.8
CCOc1cccc(CNn2cnnc2)c1OCc1ccccc1	1	-47	-11	-7%	-2.0
Cc1ccc(/C(O)=C2\C(=O)C(=O)N(CC(C)O)C2c2ccc(N(C)C)cc2)cc1 (stereo unspecified)	0	-10	3	-4%	-0.4
O=C(NCc1ccccc1)C(c1ccccc1)N(Cc1cccs1)C(=O)c1cnccn1 (stereo unspecified)	-4	-34	13	-8%	0.4
COc1ccc(-c2nc3c(s2)CCc2onc(-c4ccc(OC)cc4)c2-3)cc1	x	x	-12	x	2.3
CC(=O)Nc1cn(C(C)=O)c(C)n1	3	-19	u	-12%	-0.2
Oc1ccc(N=Nc2ccccc2C(F)(F)F)c2cccnc12	x	x	70	x	-2.0
O=C(Nc1ccc2c(c1)OCO2)C1CC(c2ccc(F)cc2)=NO1 (stereo unspecified)	-12	-22	43	5%	4.3
O=C(COc1ccc([N+](=O)[O-])cc1)N/N=C/c1cc([N+](=O)[O-])ccc1N1CCOCC1	-13	-30	7	-10%	-4.2
COC(=O)c1cc(=O)n(CCc2ccc(OC)c(OC)c2)c(=Nc2ccc(F)c(Cl)c2)s1	-40	5	3	12%	24
Brc1cccc(-c2nnc3n2CCCCC3)c1	3	-44	-11	-5%	-2.1
CCC(=O)Nc1ccc(-c2nn3c(C)nnc3s2)cc1C	-1	-27	7	-8%	-1.2
CC1CCCCN1S(=O)(=O)c1ccc2c(c1)CCN2C(=O)CCC(=O)O (stereo unspecified)	2	-19	-5	-7%	1.3
CCCc1nc(N)nc2c1C(=O)CC(C)(C)C2	1	13	-1	1%	x	Arbovirus inh repeat=1
Cn1c(CN2CCCC2)nc2cc(NS(=O)(=O)c3ccc(Cl)cc3)ccc21	-10	8	-13	0%	x
CCOC(=O)c1c(C)[nH]c(C(=O)CSc2nnc(CC(C)c3ccccc3)o2)c1C (stereo unspecified)	-14	-16	12	-8%	-1.0
COc1ccc(Br)cc1/C=N/NC(=O)c1cc(Br)ccc1O	0	x	7	4%	-1.3
COc1ccc(-n2nc(C)cc2N)cc1	0	x	5	-3%	x
Cn1nccc1C(=O)N/N=C/c1cccnc1	x	x	2	-5%	-1.2
O=C(Nc1ccc(Cl)cc1N1CCOCC1)C1CCCCC1	x	x	-6	x	-1.2
Cc1ccc(-n2c(Cc3cccs3)nnc2SCC(=O)Nc2ccc(F)c(F)c2)cc1	-3	-1	-14	9%	-1.8
NC(=NCCc1c[nH]c2ccccc12)NC(=O)c1ccc(F)cc1	x	x	0	11%	-3.1
COc1ccc(C/C(=N\O)c2ccc(OC)cc2)cc1	2	11	u	0%	1.4
Cc1nn(C)c(C)c1S(=O)(=O)N1CCC(CO)(Cc2ccc(Cl)cc2)CC1	-2	x	1	1%	1.6
O=C(NCc1ccc2c(c1)OCO2)C1CC(=O)N(c2ccc(F)cc2)C1 (stereo unspecified)	-2	-32	-2	-3%	-2.2
CCN(CC)C(=O)c1ccc(COc2ccccc2Br)o1	-2	-41	38	1%	-4.5
O=C(Nc1ncnc2sc3c(c12)CCC3)c1ccco1	5	-21	12	5%	-0.7
Cc1ccc(C(=O)N(C)CC(=O)Nc2ccc(F)c(F)c2F)o1	4	x	3	-3%	-0.8
O=S(=O)(NCC1CCCO1)c1ccc2c(c1)OCCO2 (stereo unspecified)	5	-14	-4	1%	x
CC(=O)N1c2ccc(S(=O)(=O)N3CCC(C(=O)Nc4ncccc4C)CC3)cc2CC1C (stereo unspecified)	x	x	-1	x	-2.0
COc1ccnc2c1c(=O)n(Cc1ccc(Cl)cc1)c(=O)n2C	x	x	5	x	-1.0
CCOc1ccc(NS(=O)(=O)c2ccc(C(=O)N3CCCC(C)C3)cc2)cc1 (stereo unspecified)	x	x	-13	x	1.6
COCCn1c(SCC(=O)NC2CCCCC2C)nnc1-c1ccncc1 (stereo unspecified)	x	x	-5	x	0.6
CCOC(=O)Cc1c(C)nc(N)[nH]c1=O	2	x	-2	-3%	-1.6
CCCc1nn2c(=O)c(C(c3ccc(C)cc3)c3c(O)nc4sc(CCC)nn4c3=O)c(O)nc2s1	0	-17	-6	-1%	3.5
CCOC(=O)Nc1ccc2c(c1)Nc1ccccc1S2	2	-28	41	1%	-7.9

A draw from above in order of count of non-hydrogen atoms, largest number first:
SMILES	Arbovirus inh	YopH inh	Mtb bLac sens	Mtb growth	RecA intein inh	others
CC(=O)N1c2ccc(S(=O)(=O)N3CCC(C(=O)Nc4ncccc4C)CC3)cc2CC1C (stereo unspecified)	x	x	-1	x	-2.0
CCOc1ccc(NS(=O)(=O)c2ccc(C(=O)N3CCCC(C)C3)cc2)cc1 (stereo unspecified)	x	x	-13	x	1.6
COCCn1c(SCC(=O)NC2CCCCC2C)nnc1-c1ccncc1 (stereo unspecified)	x	x	-5	x	0.6
COc1ccnc2c1c(=O)n(Cc1ccc(Cl)cc1)c(=O)n2C	x	x	5	x	-1.0
CCOC(=O)Nc1ccc2c(c1)Nc1ccccc1S2	2	-28	41	1%	-7.9

The list continues.
SMILES	Arbovirus inh	YopH inh	Mtb bLac sens	Mtb growth	RecA intein inh	others
COC(=O)CNC(=O)COC(=O)/C=C/c1ccccc1[N+](=O)[O-]	5	x	-4	3%	0.1
Cc1ccc(CNC(=O)C(NS(=O)(=O)c2ccc3nc(C)sc3c2)C(C)C)cc1 (stereo unspecified)	8	-14	1	-5%	-8.6
Nc1nc(Cl)cc(N2CCC(c3cc(-c4ccc(Cl)cc4Cl)n[nH]3)CC2)n1	-45	5	89	9%	7.3
CNC(=O)NC(=O)CSc1nnc(-c2ccco2)n1Cc1ccccc1	6	-29	-2	-8%	0.9
Cn1c(SCC(=O)Nc2cc(S(=O)(=O)N3CCOCC3)ccc2N2CCOCC2)nnc1-c1ccncc1	3	x	-7	-2%	-0.6
Cc1nn(C(C)c2n[nH]c(=S)n2-c2ccc(F)cc2)c(C)c1[N+](=O)[O-] (stereo unspecified)	0	-16	-4	3%	-1.3

Filtered by structure: the compounds so far with a COOH group.
SMILES	Arbovirus inh	YopH inh	Mtb bLac sens	Mtb growth	RecA intein inh	others
O=C(O)CSCc1ccc(Cl)cc1	-2	-20	-2	-1%	-0.5
CC1CCCCN1S(=O)(=O)c1ccc2c(c1)CCN2C(=O)CCC(=O)O (stereo unspecified)	2	-19	-5	-7%	1.3

A portion of the library (hit frequency here may not be typical).
